# Sfp PPTase inh – qHTS Assay for Inhibitors of Bacillus subtilis Sfp phosphopantetheinyl transferase (PPTase) | 4'-phosphopantetheinyl transferase ffp (Bacillus subtilis), Q9F4F7 | Biochemical Sfp PPTase activity, qHTS | Potency, µM, inactives show max response, negative = inhibition, most hits filed as inhibitors | hit rate 3.5% among 310,000 | AID 1490, 2009; active = well fitted inhibition curve with a large enough effect; inconclusive = small, poorly fitted or top-dose-only effect, or another doubt; inactive = no such curve, though single readings can be large or run the other way;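 also: the enzyme is Sfp with the accession as filed and its product quenches rhodamine fluorescence; potency is read from the fitted curve at half-maximal effect; 0% = enzyme reaction without inhibitor and -100% = no enzyme wells; top concentration of the series not given in the record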
#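 Buffer: 50 mM Hepes-Na pH 7.6, 10 mM MgCl2, 0.01% Nonidet P-40, 0.01% BSA. Enzyme 15 nM, pre-exposed to compound 15 min; substrates then added and fluorescence change tracked over 30 min.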
# gsp antagonist – qHTS for Antagonists of gsp, the Etiologic Mutation Responsible for Fibrous Dysplasia/McCune-Albright Syndrome: qHTS. gsp-mutant cells, cAMP HTRF, 30 min; control for the full effect not named in the record. Potency, µM (titrated, usually from 76.9 µM), without a hit: at the top dose activity change, negative = inhibition, most hits filed as inhibitors. hit rate 0.4% among 340,000. AID 624288, 2012; active = falling curve of any shape with a large fitted effect; inconclusive = falling curve, mostly with a smaller effect; inactive = flat or rising curve; cell line not stated here;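 also: intracellular cAMP measured with PDE inhibitor Ro 20-1724 present during compound exposure; potency is read from the fitted curve at half-maximal effect; % is scaled to controls: 0 for no effect and ±100 for the full control effect; nearly all actives have a fitted effect of over 65% in size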
#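 HTRF cAMP measurement after 30 min RT detection following 30 min, 37C compound treatment alongside […] (added as 300 uM solution) in G418-selected cells seeded at 2000/well and grown 16–24 h.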
# gsp agonist – qHTS for Agonist of gsp, the Etiologic Mutation Responsible for Fibrous Dysplasia/McCune-Albright Syndrome: qHTS; gsp mutant cells, cAMP HTRF, 30 min; control for the full effect not named in the record; hit rate 0.13% among 340,000; AID 624287, 2012; Potency, µM (highest dose often 76.9 µM), for the others: at the highest dose activation (cAMP increase), hits mostly activators; active = well fitted activation curve with a large enough effect; inconclusive = small, poorly fitted or top-dose-only effect, or another doubt; inactive = no such curve, though single readings can be large or run the other way; cell line not stated here;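 also: phosphodiesterase inhibitor Ro 20-1724 added with compounds to block cAMP breakdown; potency is read from the fitted curve at half-maximal effect; nearly all actives have a fitted effect of over 60% in size; about a fifth of the inactives were tested at one dose only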
#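 Cells stably selected in G418 were plated at 2000/well, grown 16-24 hr, then given compounds in DMSO with the PDE inhibitor […] (300 uM solution added) for 30 min at 37C; cAMP was read by HTRF.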
# Menin MLL FP FL – qHTS Assay for Inhibitors Targeting the Menin-MLL Interaction in MLL Related Leukemias: Competition With Fluorescein Labeled MLL-derived Peptide. Fluorescence polarization, fluorescein-MLL peptide displacement from menin. FP activity change, % at 61.4 µM. 290,000 tested, under 10 active; inconclusive = falling polarisation curve, or a change in total fluorescence; inactive = total fluorescence flat and polarisation flat or rising; no compound was filed as active; the % refers to the polarisation; negative = inhibition;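 also: % of control where 0% means no effect; inhibitors lower the polarisation; unlabelled MLL peptide was the positive control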
# TRPV1 PAM – HTS Assay for Compounds that Act as Potentiators of the Vanilloid Receptor 1; Transient receptor potential cation channel subfamily V member 1 (Homo sapiens), Q8NER1; hit rate 0.02% among 320,000; TRPV1-expressing cells, Fluo-8 calcium influx, capsaicin EC20 potentiation; host cell line not named in the record; control for the full effect not named in the record; potentiation, % at 8.33 µM; active means potentiation above 80%; inconclusive means 30% to 80%; inactive means below 30%; also: 0% is about no effect
#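 Cells expressing TRPV1 were dye-loaded with Fluo-8 and read kinetically: 10 s baseline, 3 min after compound (agonist portion), then 2 min after EC20 capsaicin (allosteric enhancer portion). Calcium-bound dye fluorescence at 480/520 nm.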
# TRPML1 inh – qHTS for Inhibitors of the Human Mucolipin Transient Receptor Potential 1 (TRPML1). Mucolipin-1 (Homo sapiens), Q9GZU1. TRPML1-inducible cells, Ca2+ dye fluorescence, FDSS; hits give low values; inhibition of EC80 agonist-evoked calcium signal. activity change, negative = inhibition, % (concentration not given with the values). hit rate 0.02% among 390,000. AID 624415, 2012; in the data active means activity change below about -50%; inconclusive means about -30% to -50%; inactive means above about -30%;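 also: stimulus is agonist 54-4 at its EC80 concentration; % is scaled to controls: 0 for no effect and ±100 for the full control effect; compound concentration not given in the record; the text of the record puts the active cut at -80%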
# Target sequence (Q9GZU1 whole entry, looked up): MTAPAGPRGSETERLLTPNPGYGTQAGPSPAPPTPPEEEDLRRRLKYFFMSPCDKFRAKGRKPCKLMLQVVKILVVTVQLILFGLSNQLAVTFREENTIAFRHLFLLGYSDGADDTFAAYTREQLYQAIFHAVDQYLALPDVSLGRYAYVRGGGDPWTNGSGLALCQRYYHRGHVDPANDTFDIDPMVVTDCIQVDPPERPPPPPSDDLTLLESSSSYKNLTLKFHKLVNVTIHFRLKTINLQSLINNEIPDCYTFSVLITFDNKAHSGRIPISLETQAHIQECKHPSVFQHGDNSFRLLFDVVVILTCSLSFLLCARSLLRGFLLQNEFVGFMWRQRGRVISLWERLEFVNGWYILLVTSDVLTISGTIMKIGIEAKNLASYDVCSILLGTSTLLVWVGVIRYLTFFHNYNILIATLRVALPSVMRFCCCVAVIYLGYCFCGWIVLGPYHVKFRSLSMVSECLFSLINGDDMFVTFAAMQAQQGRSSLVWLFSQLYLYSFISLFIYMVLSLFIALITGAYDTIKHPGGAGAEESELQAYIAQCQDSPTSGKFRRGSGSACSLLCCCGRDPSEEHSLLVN
#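 Calcium fluorescence in TRPML1-DL cells induced overnight with Tet: a 110 s read after compound pin addition, then a 110 s antagonist read after challenge with 54-4 at 4 uM final (EC80).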
# ClpP mod – qHTS Assay for Activators of ClpP; ATP-dependent Clp protease proteolytic subunit (Bacillus subtilis (strain 168)), P80244; hit rate 1.9% among 340,000; purified B. subtilis ClpP, FRET peptide cleavage, 20 min; AID 651965, 2013; Potency, µM (doses to about 57.5 µM), without a hit: at the highest dose activity change, negative = active; active = well fitted falling curve with a large enough effect; inconclusive = small, poorly fitted or top-dose-only effect; inactive = no such curve, though single readings can be large or run the other way; also: potency is read from the fitted curve at half-maximal effect; the source files actives as falling curves though it sought activators and does not explain the sign; nearly all actives have a fitted effect of over 65% in size; many hits overshoot -100%
# Target sequence (P80244 whole entry, looked up): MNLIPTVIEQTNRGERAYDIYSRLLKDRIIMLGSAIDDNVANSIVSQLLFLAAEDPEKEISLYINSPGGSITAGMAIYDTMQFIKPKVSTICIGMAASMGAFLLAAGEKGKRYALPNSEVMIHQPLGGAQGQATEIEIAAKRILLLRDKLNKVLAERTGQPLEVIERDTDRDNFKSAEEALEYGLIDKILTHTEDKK
#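 ClpP 10 microg/mL final, pH 8 Tris/KCl buffer with BSA, glycerol, Tween-20; compound pinned in; FRET-FV substrate; RT 20 min; Ex320/Em430; ΔFRET vs ADEP 5.8 microM, DMSO, no enzyme.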
# Starred values were filed as active, the others as inactive; ? = inconclusive; . = no result given; [ ] = another dose, or the depositor's remark.
canonical_smiles,TRPV1 PAM,ClpP mod,Menin MLL FP FL,TRPML1 inh,Sfp PPTase inh,gsp agonist,gsp antagonist
Cc1nn(C(C)C(=O)NNC(=S)Nc2ccc(F)cc2)c(C)c1[N+](=O)[O-] (configuration not stated),28,-2.2%,-1.2,21,18%,-7%,-15%
Cc1ccc2nc(NC(=O)CN3CCOCC3)sc2c1,-22,-14%,-0.4,-8,7%,-30%[inhibitor],6%
Cc1c(Br)ccc(NC(=O)Cn2nc(-c3cccs3)ccc2=O)c1C,-4,.,-10,0,-28%,-2%,-10%
CC1CC(C)CN(C(=O)CSc2nnc(CSc3ncccn3)n2C)C1 (configuration not stated),-8,1.0%,2.8,7,20%,9%,12%
Cc1cc(C)c(NC(=O)c2cc3c(nc4sccn43)s2)c(C)c1,1,-5.1%,-2.3,7,-19%,16%,-9%
C=CCn1c(SCC(=O)N(C)C2CCS(=O)(=O)C2)nc2ccccc2c1=O (configuration not stated),-3,-0.3%,6.0,-14,19%,16%,-6%
O=C(Cc1cccc(NC(=O)C2CCCN(C(=O)C3CCC3)C2)c1)Nc1cccc(C(=O)N2CCOCC2)c1 (configuration not stated),.,0.8%,.,-19,.,.,0%
COc1ccc(CC(=O)Nc2c(C(N)=O)oc3ccccc23)cc1,3,-4.4%,5.7,-13,19%,?,-24%
Cc1cc2ccccn2c1C(=O)c1ccc(F)cc1,-4,.,1.3,9,7%,0%[15.4 µM],-11%
COCCC(=O)N1CCC(Oc2ccc(C(=O)N3CCC(N(C)C)C3)cc2)CC1 (configuration not stated),-6,1.3%,3.5,0,9%,14%,8%
Cc1c(NC(=O)N2CCCCCC2)c(=O)n(-c2ccccc2)n1C,10,3.4%,0.1,-1,12%,22%,14%
CCn1c(C)nc2cc(C(=O)N/N=C/c3ccc(N4CCOCC4)cc3)ccc21,1,.,?,-6,8%,3%[15.4 µM],-13%
COc1ccc(NS(=O)(=O)c2ccc(NC(=S)NC(=O)/C=C/c3ccc(C)cc3)cc2)nn1,-10,-10.0%,1.2,8,9%,-11%[15.4 µM],-23%
CCOC(=O)c1c(-c2ccc(-c3ccccc3)cc2)csc1NC(=O)CCC(=O)O,11,-13%,-0.9,.,-8%,-38%[inhibitor],?
CC(C)(C)c1ccc(C(=O)NC(=S)Nc2sc3c(c2C#N)CCC3)cc1,?,0.5%,12,27,?,-5%,5%
CC(=O)Nc1sc2c(c1C(N)=O)CCN(Cc1ccccc1)C2,-9,.,-13,-5,-10%,1%,1%
Cc1c(NC(=O)CCCOc2ccccc2)cccc1[N+](=O)[O-],19,-1.0%,2.2,-8,13%,-3%,6%
O=[N+]([O-])c1ccccc1N=NNc1ccccc1,.,.,.,0,.,5%,-18%
CNc1nc(Cl)c(SC)c(NC2CCCCC2)n1,-8,.,-5.6,15,7%,-28%,-9%
CN(C)S(=O)(=O)c1cc([N+](=O)[O-])ccc1N1CCCCCC1,-24,0.5%,1.1,1,18%,0%,?
Cc1ccc(C(=O)OCC(=O)Nc2cccc(Cl)c2C)c(O)c1,-6,-24%,5.3,.,-27%,22%,13%
CCO[C@H]1OC(C(N)=O)=C[C@@H](c2csc3ccccc23)[C@@H]1CCCO,-13,-4.9%,1.9,-16,-14%,.,2%
Cc1ccc(N=Nc2c(C)[nH][nH]c2=O)c(C)c1,-1,-0.5%,0.0,-8,3%,-6%,8%
COc1ccc(N(C(=O)CNC(=O)c2cccs2)C(C(=O)NCC2CCCO2)c2ccccc2)c(OC)c1 (configuration not stated),-32,.,-1.9,8,5%,5%[15.4 µM],.
N/C(=N\NS(=O)(=O)c1cc(C(F)(F)F)cc(C(F)(F)F)c1)c1ccccn1,-8,.,0.4,0,23%,5%[15.4 µM],5%
COCC(=O)Nc1nnc(C2CCCCC2)s1,0,0.7%,2.5,5,7%,0%,7%
COc1ccc(-c2nc(CS(=O)CC(=O)NCCN3CCCCC3C)c(C)o2)cc1OC (configuration not stated),-11,4.0%,.,15,10%,-32%[inhibitor],8%
O=c1cc(C(F)(F)F)[nH]c2ccccc12,-14,4.2%,1.7,13,16%,-1%,6%
Cc1ccc(-n2nc3c(=O)n(CC(=O)NCc4ccccc4)nc(C)c3c2C)cc1,2,0.0%,-0.6,-16,20%,-45%[inhibitor],2%
O=C(c1ccccc1)c1nn(-c2cccc(Cl)c2)c2nc(-c3ccccc3)cc(=O)n12,9,-5.7%,-3.7,-10,5%,-21%,8%
CCc1ccc(O)c(N=Cc2ccccc2O)c1,3,-1.1%,5.9,-17,-26%,-9%,-4%
Fc1ccccc1C1CCN(Cc2nc(CC3CC3)no2)C1 (configuration not stated),-4,.,3.2,-14,-1%,4%,9%
Cc1cccc(N(C2C=CS(=O)(=O)C2)S(=O)(=O)c2ccccc2)c1 (configuration not stated),5,-0.8%,2.2,2,21%,?,-3%
COCCN(Cc1ccccc1)P(=O)(O)c1ccccc1OCC(=O)O,12,-0.7%,0.5,-11,28%,-2%,7%
CN(Cc1ccccc1F)C(=O)CN1c2cccc3cccc(c23)S1(=O)=O,3,?,.,12,.,-2%,-7%
Cc1[nH]c2ccccc2c1/C=N/Nc1ccc(F)cc1F,6,.,6.4,.,5%,.,.
CSc1ccccc1OCc1cc(C(=O)N2CCN3CCCC3C2)no1 (configuration not stated),-3,-0.5%,5.7,-14,17%,?,-1%
O=C1/C(=N\S(=O)(=O)c2cccs2)C([n+]2ccccc2)=C([O-])c2ccccc21,4,0.4%,-23,2,16%,0%,7%
CN1CCN(C(=O)C2C3C=CC(C3)C2C(=O)O)CC1 (configuration not stated),9,-0.4%,-0.2,-5,-2%,-3%,3%
O=c1cc(CSc2nnnn2-c2ccccc2)nc(Nc2ccc(F)cc2)[nH]1,0,1.0%,0.8,9,-6%,-52%[inhibitor],3%
Cc1ccc(NC(=O)c2ccc(Cl)cc2[N+](=O)[O-])nc1,0,.,-2.4,-21,6%,16%[15.4 µM],25%
O=C(NCCCc1nc2ccccc2[nH]1)c1cccs1,3,2.9%,-1.7,-3,5%,?,1%
Cc1nc(N2CCOCC2)c2oc3ccccc3c2n1,6,-3.1%,-4.0,-3,2%,27%,-4%
O=C(NC(Cc1c[nH]c2ccccc12)C(=O)Nc1ccc(OC(F)(F)F)cc1)c1cccs1 (configuration not stated),-23,.,1.3,34,22%,0%[15.4 µM],4%
O=c1[nH]c(N2CCN(Cc3ccc4c(c3)OCO4)CC2)nc2c1CCCC2,3,.,6.6,41,0%,?,-17%
CCNc1nc(Oc2ccc(=O)n(-c3ccccc3)n2)nc(N2CCOCC2)n1,2,-3.0%,1.2,7,20%,-2%,30%
COc1ccc(CN2CCC[C@]3(N[C@H](c4ccccc4)[C@@H]4C(=O)N(C)C(=O)[C@@H]43)C2=O)cc1,.,1.9%,.,-11,.,-8%,.
CN1CCc2nc(SCC(=O)Nc3ccc(Cl)cc3)c(C#N)cc2C1,.,-2.3%,.,-10,.,14%,-6%[15.4 µM]
O=C(CN1CCN(c2ccccc2)CC1)Nc1ccc(Oc2ccccc2)cc1,-9,-3.2%,1.3,7,1%,11%,-4%
Cc1ccc(Cn2ccc(NC(=O)c3cc(-c4ccc(F)cc4)on3)n2)cc1,-7,-11%,2.9,-3,-4%,-28%,-6%

# Later entries:
canonical_smiles,TRPV1 PAM,ClpP mod,Menin MLL FP FL,TRPML1 inh,Sfp PPTase inh,gsp agonist,gsp antagonist
CCOc1nc(Nc2ccc(F)cc2)nc(N2CCN(c3ccc(OC)cc3)CC2)n1,-10,-28%,2.8,20,4%,-4%,-9%
O=c1[nH]c2ccc(N/C(=N/S(=O)(=O)c3ccccc3)c3ccccc3)cc2[nH]1,-21,0.4%,-0.5,9,1%,8%[15.4 µM],18%
COc1ccc(-c2cc3ccc(O)cc3oc2=O)cc1,2,4.1%,13,-2,6%,28%,1%
COc1ccc(OC)c(C2=C[N+](=O)C(C)(C)C(C)(C)N2[O-])c1,6,-1.6%,7.5,11,11%,4%,14%
Nc1cccc(N2C(=O)c3cccc4c(N)ccc(c34)C2=O)c1,-6,-0.8%,?,-23,-2%,55%,-8%
COc1ccc(CCNC(=O)c2ccc(Cl)nc2)cc1,-46,.,-1.5,-15,5%,-1%[15.4 µM],-4%
Oc1ccc(C(=S)N2CCN(Cc3ccccc3)CC2)cc1,-21,-2.3%,3.2,2,16µM*,?,-10%
COc1ccc(NC2CCCN(C(=O)c3ccc(C)c(N4CCNC4=O)c3)C2)cc1 (configuration not stated),3,-0.8%,.,1,8%,-59%,3%
COc1ccc(/C=N/NC(=O)C(=O)NCC2CCCO2)cc1 (configuration not stated),-1,-2.8%,2.6,16,17%,-75%[inhibitor],4%
COc1ccc(C)cc1NC(=O)NNC(=O)C1CCC(C(C)(C)C)CC1 (configuration not stated),18,-4.0%,-4.7,5,8%,-34%[inhibitor],?
CCCSc1nc2sc3c(c2c(=O)[nH]1)CCN(Cc1ccccc1)C3,13,77%,?,-11,-9%,3%,-10%
Cn1cnnc1SCC(=O)NNC(=O)c1ccc(Cl)cc1,6,-1.5%,-0.3,1,7%,11%,4%
CC12CN3CC(C)(CN(C1)C3c1ccc3ccccc3c1O)C2=O (configuration not stated),12,3.5%,-4.5,15,-12%,-43%[inhibitor],-8%

# From PubChem
